Vaccinia Venus: qHTS for Stage-Specific Inhibitors of Vaccinia Orthopoxvirus: Venus Reporter Primary qHTS | Vaccinia virus Venus reporter expression, fluorescence | Potency, µM (highest dose often 36.5 µM), for the others: top-dose activity change, negative = inhibition, usual class: inhibitors | hit rate 0.46% among 330,000 | AID 720580, 2013; active means well fitted inhibition curve with a large enough effect; inconclusive means small, poorly fitted or top-dose-only effect; inactive means no such curve, though single readings can be large or run the other way; tested in A549 cells; note: nearly all actives have a fitted effect of over 30% in size; inactives centre near -10
VACV mCherry inh: qHTS for Stage-Specific Inhibitors of Vaccinia Orthopoxvirus: mCherry Reporter Primary qHTS | Vaccinia virus mCherry reporter infection, fluorescence; about a quarter of the inactives have no number | Potency, µM (highest dose often 36.5 µM), without a hit: at the top dose activity change, negative = inhibition, most hits filed as inhibitors | hit rate 0.63% among 310,000 | AID 720579, 2013; active = well fitted inhibition curve with a large enough effect; inconclusive = small, poorly fitted or top-dose-only effect; inactive = no such curve, though single readings can be large or run the other way; tested in A549 cells; note: nearly all actives have a fitted effect of over 35% in size; inactives centre near -10
An asterisk follows results filed as active; i = inactive; ? = inconclusive; . = no result given; & = joins results of further samples; [ ] = remark or other dose. % is set by controls: 0 for no effect and ±100 for the full control effect; potency is the fitted concentration of half-maximal effect.

A first look:
Order of results – Vaccinia Venus | VACV mCherry inh
- COc1ccc(C(=O)NC(=S)N2CCC(C)CC2)cc1Br
→ -12% | ?
- COc1ccc(C(=O)c2ccccc2Cl)cc1
→ -3% | .
- Cc1ccccc1OCC(=O)Nc1nnc(SCc2cc(=O)n3cccc(C)c3n2)s1
→ -6% | -17%
- CC(=O)N1c2c(cc(Br)cc2S(=O)(=O)N2CCN(c3cccc(Cl)c3)CC2)CC1C (configuration not stated)
→ 1% | -8%
- COc1ccccc1NC(=O)O/N=C(\N)c1ccccc1
→ 3% | -2%
- COc1cc(CC(=O)N(C)CC(=O)Nc2cc(C)ccc2C)cc(OC)c1OC
→ 11% | -4%

All compounds of this part, repeating the preview:
Order of results – Vaccinia Venus | VACV mCherry inh
- COc1ccc(C(=O)NC(=S)N2CCC(C)CC2)cc1Br
→ -12% | ?
- COc1ccc(C(=O)c2ccccc2Cl)cc1
→ -3% | .
- Cc1ccccc1OCC(=O)Nc1nnc(SCc2cc(=O)n3cccc(C)c3n2)s1
→ -6% | -17%
- CC(=O)N1c2c(cc(Br)cc2S(=O)(=O)N2CCN(c3cccc(Cl)c3)CC2)CC1C (configuration not stated)
→ 1% | -8%
- COc1ccccc1NC(=O)O/N=C(\N)c1ccccc1
→ 3% | -2%
- COc1cc(CC(=O)N(C)CC(=O)Nc2cc(C)ccc2C)cc(OC)c1OC
→ 11% | -4%
- COc1ccccc1OCC(=O)Nc1c2c(nn1-c1ccc(C)cc1)CS(=O)(=O)C2
→ -13% | -14%
- CN(C(=O)CSc1nnc(NC(=O)Nc2ccccc2)s1)c1ccccc1
→ -4%[7.34 µM] | -4%[7.34 µM]
- O=C(Cc1ccc2c(c1)OCCO2)N1CCN(S(=O)(=O)c2cccc(Cl)c2Cl)CC1
→ -7% | -4%
- Cc1ccc(OCc2cc(C(=O)Nc3ccccc3)oc2C)cc1
→ -19% | -6%[1.46 µM]
- CN1C(=O)N(C)C2(CC1(C)C)CC(C)(C)N(C)C(=O)N2C
→ -12% | -13%
- Cc1nc(N)nc(N/N=C/c2c(F)cccc2Cl)n1
→ -11% | -9%
- COc1ccc(CNC(=O)c2cccc(S(=O)(=O)N3CCN(c4ccc(F)cc4)CC3)c2)cc1
→ -23% | -22%
- O=C(NC1CCN(Cc2ccccc2)CC1)c1[nH]c(C(F)(F)F)nc1-c1ccccc1
→ -5%&-11% | 13%&-17%
- Cc1ccc(CN2CCN(CC(=O)O)C2=O)cc1
→ -8% | 1%
- CC(=O)c1ccccc1NC(=O)COC(=O)C1COc2ccccc2O1 (configuration not stated)
→ -4% | i
- C=CCN(CC(=O)NC1CCCC1)C(=O)C(=O)Nc1ccc2c(c1)OCCO2
→ 0% | i
- O=C1CC2(CCCCC2)Oc2ccc(F)cc21
→ -12% | -2%
- O=C(CCN1C(=O)c2ccccc2C1=O)Nc1ccc(-c2cn3ccsc3n2)cc1
→ -15% | i
- COc1ccc(CC(=O)NCc2nnc(SCC(=O)Nc3cccc(F)c3)n2C)cc1
→ -12% | -14%
- NS(=O)(=O)c1ccc(CCNC(=O)c2ccc(OCC3CCCO3)cc2)cc1 (configuration not stated)
→ -7% | 2%
- Cn1cncc1C#Cc1ccc2cc(C3(O)CCCCC3)oc(=O)c2c1
→ 9% | i
- COc1ccc(OC)c2[nH]c(=O)c(CCNC(=O)c3cc4ccccc4o3)cc12
→ -11% | i
- Cc1ccc(NC(=O)CN2CCc3cc4c(cc3C2)OCCCO4)cc1
→ -16% | -23%
- O=C(NCc1ccco1)c1ccc(=O)oc1
→ -9% | .
- Cc1cc2oc(C(=O)Nc3ccc(S(=O)(=O)Nc4onc(C)c4C)cc3)cc(=O)c2cc1C
→ -13% | -12%
- CN=C1S/C(=C\c2ccc(SC)cc2)C(=O)N1C
→ 0% | -16%
- Cc1nnc(NC(=O)Oc2ccccc2)s1
→ -16% | i
- O=C(NCCC(=O)N1CCN(c2ccccn2)CC1)c1ccc(Cl)cc1
→ -4% | i
- CC(=O)Nc1cc(-c2ccc(C(=O)N3CCOCC3)cc2)cn2c(-c3cccc(C(F)(F)F)c3)cnc12
→ -23% | -29%

Carrying on:
Order of results – Vaccinia Venus | VACV mCherry inh
- Cc1ccc(NC(=O)CN2C(=O)S/C(=C/c3ccc(O)c([N+](=O)[O-])c3)C2=O)cc1C
→ -4% | i
- Cc1cccc(N(C(=O)CNC(=O)c2cccs2)C(C(=O)NC2CCCC2)c2cccnc2)c1 (configuration not stated)
→ -18% | -9%
- CNC(=O)N(O)C1N(NC(=O)Nc2ccccc2)C(=S)SC1(C)C (configuration not stated)
→ -13% | -30%
- CCOC(=O)C1CCCN(S(=O)(=O)c2cccs2)C1 (configuration not stated)
→ -5% | i
- COc1cccc(-c2nc(N3CCCCC3)c3ccccc3n2)c1O
→ -17% | ?
- COc1ccc(CCCNC(=O)C2CCC(=O)N(CCc3cccc(F)c3)C2)cc1 (configuration not stated)
→ -22% | i
- N#CCC(=O)Nc1ccc(C(=O)N2CCN(S(=O)(=O)c3ccc4ccccc4c3)CC2)cc1
→ -9% | -12%
- CC1CCN(CCC(=O)NN)CC1
→ -11% | -4%
- COc1cccc(NC(=O)C2CC(=O)OC23CCOC(C)(C)C3)c1 (configuration not stated)
→ -10% | .
- CCOC(=O)C1CCN(C(=O)c2c(C)oc3c2C(=O)c2ccccc2C3=O)CC1
→ 14µM* | 14µM*
- COc1cc(/C=C(/C#N)c2ccc(F)cc2)ccc1Oc1ccc([N+](=O)[O-])cn1
→ -21% | -27%
- CCCCOC(=O)C1=C(C)N(C)C(=O)NC1c1cc2c(cc1Br)OCO2 (configuration not stated)
→ -19% | -8%
- CC1CCN(C(=O)c2c(NC(=O)c3ccccc3F)sc3c2CCC(C(C)(C)C)C3)CC1 (configuration not stated)
→ -9% | -13%
- CCN(CCCNC(=O)CN(C)S(=O)(=O)c1cccc2nsnc12)c1ccccc1
→ -14% | -28%
- Cc1ccccc1CN1CCC(CNC(=O)C2CCCN(c3ncnc4c3nc3n4CCCCC3)C2)CC1 (configuration not stated)
→ ? | -12%
- Cc1cccc(C(=O)Nc2nnc(Cc3c[nH]c4ccccc34)s2)c1
→ 0% | i
- COc1ccc2cc(C(=O)NCc3ccc4c(c3)CCN4C(=O)c3ccc(C)cc3)[nH]c2c1
→ -23% | -29%
- Cc1ccc(C(=O)N2CCCC2)cc1Br
→ -19% | -16%
- COC(=O)c1cc(O)cc(OC)c1Oc1cc(C)cc(O)c1C(=O)O
→ ? | ?
- Cc1ccc(C(=O)Nc2nnc(S(=O)(=O)N3c4ccccc4CC3C)s2)cc1 (configuration not stated)
→ -11% | -9%
- Oc1ccc(C[C@H]2CN([C@@H](Cc3ccccc3)CN3CCC[C@@H]3CN3C(=S)NC[C@@H]3Cc3ccccc3)C(=S)N2CC2CCCCC2)cc1
→ -11% | 6%
- Cc1ccc2nc(CSc3nnc4ccccn34)cc(=O)n2c1
→ -3% | 1%
- O=[N+]([O-])c1cc(S(=O)(=O)N2CCCC2)ccc1NCCCN1CCOCC1
→ -6% | i
- Cc1cnc(C(=O)OCC(=O)NC2CCCC(C)C2C)cn1 (configuration not stated)
→ -8% | .
- CC(C)NC(=S)N1CCN(S(C)(=O)=O)CC1
→ -3% | i
- C[C@@H]1COc2cc(N3CCN(Cc4ccccc4F)CC3)ccc2S(=O)(=O)N1
→ 0% | 5%
- COc1ccc(NC(=O)CN(C)CC(=O)NCC(=O)Nc2ccc(F)cc2)cc1
→ -9% | i
- CCOc1cc(C2/C(=C(\O)c3cc(C)ccc3C)C(=O)C(=O)N2CCN(C)C)ccc1O (configuration not stated)
→ 9% | -4%
- O=C(CCCc1ccccc1)NC1CCSC1=O (configuration not stated)
→ -8% | -16%
- Cc1ccc(S(=O)(=O)Nc2nc(C)c(C(=O)NNS(=O)(=O)c3ccccc3)s2)cc1
→ 6% | -9%

The list goes on.
Order of results – Vaccinia Venus | VACV mCherry inh
- CCc1ccccc1NC(=O)Cn1c(=O)n(CCCS(=O)(=O)C2CCCCC2)c(=O)c2ccccc21
→ -14% | -13%
- COc1ccc(-c2nc3scc(CCNC(=O)Cc4ccc(F)cc4)n3n2)cc1
→ -2% | -3%
- COCCNC(=O)CN(Cc1ccccc1)C(=O)CCC(=O)Nc1nccs1
→ 1% | 9%
- COC(=O)C1=C(C)C(c2ccc(OC)cc2OC)NC(=O)N1 (configuration not stated)
→ -10% | -8%
- C=CCN(C(=O)c1cccc(C(F)(F)F)c1)C1(C(=O)Nc2ccccc2)CCN(C(C)C)CC1
→ -12% | i
- CCc1cccc(CC)c1NC(=O)CSc1nnc(C2CC2)n1C
→ 4% | 0%
- NS(=O)(=O)c1ccc(NC(=O)COC(=O)Cc2ccc(Cl)cc2)cc1
→ -15% | 1%
- CCC1CCCCN1C(=O)c1noc(C(C)C)c1[N+](=O)[O-] (configuration not stated)
→ -16% | i
- CC(=O)N1CCC(N(CCN2CCOCC2)C(=S)Nc2ccc(C)cc2C)CC1
→ 4% | -5%
- COC(=O)[C@]1(CC(C)C)N[C@H](c2ccc(SC3CCCCC3)c(OC)c2)[C@@H]2C(=O)N(C)C(=O)[C@@H]21
→ -26% | ?
- N#CCCN1CCN(S(=O)(=O)c2ccc(C#N)cc2)CC1
→ -17% | .
- CCOC(=O)CSc1ncccn1
→ 3% | i
- CCn1c(=N)c(C(=O)NC2CCCC2)cc2c(=O)n3cc(C)ccc3nc21
→ -1% | 8%
- O=C(/C=C/c1ccc(OCCCF)cc1)NCc1cccc(Cl)c1
→ -30% | .
- CN1CCN(C(=O)c2ccc3c(c2)N(Cc2cccc(Cl)c2)C(=O)c2ccccc2S3(=O)=O)CC1
→ -12% | i
- O=C(CCn1c(=O)c2cccn2c2cccnc21)N1CCN(c2ccccc2F)CC1
→ -16% | i
- CCOC(=O)c1cccc(NC(=O)COc2ccc3c(C)cc(=O)oc3c2)c1
→ 1% | -4%
- c1ccc(-n2nnc3ccccc32)cc1
→ -11% | -4%
- CCOC(=O)C1CCCN(C(=O)c2ccc(F)c(C)c2)CC1 (configuration not stated)
→ 6% | 7%
- COCCCNC(=S)NC(=O)c1ccccc1
→ -11% | i
- COc1cc(OC)cc(C(=O)Nc2ccccc2C(=O)N2CCCC2)c1
→ 3% | .
- Cc1ccc2cc3c(nc2c1)N(Cc1ccco1)CC3
→ ? | .
- CCOc1ccc(NC(=O)C2CCCN(S(=O)(=O)c3c(C)nn(C)c3C)C2)cc1 (configuration not stated)
→ -9% | 4%
- COc1cccc(OC)c1C(=O)NCCc1csc(-c2ccc(Cl)cc2)n1
→ -23% | ?
- CCNCc1ccc(OCc2cccs2)c(OCC)c1
→ -5% | i
- CC1C2Cn3c(nc4ccccc43)C1N(C(C)C)O2 (configuration not stated)
→ -5% | i
- CN1C(C(=O)N2CCC3(CC2)OCCO3)=CC(c2ccc(F)cc2)=NS1(=O)=O
→ -15%[7.34 µM] | 0%[7.34 µM]
- CCc1ccc(S(=O)(=O)NCCc2cn3ccccc3n2)s1
→ -8% | .
- Cc1cccc(NC(=O)CSc2nccn2Cc2ccco2)c1
→ -15% | i
- COCCNC(=O)CN1c2ccccc2CC1C (configuration not stated)
→ -8% | -22%

Next section
Order of results – Vaccinia Venus | VACV mCherry inh
- Cc1ccc(S(=O)(=O)N2CCN(C(=O)c3cc(-c4ccc(Br)cc4)n[nH]3)CC2)c(C)c1
→ -13% | -20%
- CC(NC(=O)CCNS(=O)(=O)c1ccccc1)c1ccccc1 (configuration not stated)
→ -6% | -13%
- COc1ccc(NC(=O)Cn2c3ccccc3c3nc4n(c(=O)c32)CCS4)cc1
→ -9% | -2%
- COc1ccc(N(CC(=O)NCc2ccccc2Cl)S(=O)(=O)c2c(C)[nH]c(=O)[nH]c2=O)cc1
→ 2% | -16%
- O=C(CN1CCN(Cc2ccccc2)CC1)N/N=C/C=C/c1ccco1
→ -13% | -21%
- Cc1nc2sc(C(=O)NCc3ccc(Cl)cc3)c(NC(=O)c3ccccc3)c2c(C)c1C
→ -19% | -20%
- O=C(C[n+]1ccccc1Cl)c1ccc2ccccc2c1
→ -10% | i
- O=C(N/C=C/c1ccccc1)Nc1ccc(Cl)cc1
→ 0% | -11%
- CC(C)(C)C(C(=O)O)N1CCS(=O)(=O)CC1 (configuration not stated)
→ -4% | -12%
- COCC(C)N1CCC(n2nccc2NC(=O)c2ccccc2Cl)CC1 (configuration not stated)
→ 4% | -8%
- COc1ccc(NC(=O)C2=CC(c3ccc4c(c3)OCO4)=NS(=O)(=O)N2C)cc1OC
→ -10% | 1%
- COc1ccccc1NS(=O)(=O)c1cccc(NC(=O)Nc2ccc(Cl)cc2)c1
→ ? | i
- Cc1cccc(NC(=O)CSc2nc3nc(C)cc(C)n3n2)c1
→ -10% | -22%
- Cc1cc(OC(C)C(=O)N/N=C/CC(C)c2ccccc2)ccc1Cl (configuration not stated)
→ -7% | -11%
- CCOC(=O)c1ccccc1NC(=O)Cc1ccc(S(=O)(=O)N2CCCC2)s1
→ -7% | -15%
- O=C(Oc1c(-c2ccccc2)c(=O)n2c3c(cccc13)CC2)c1ccc(Cl)cc1
→ 1% | -10%
- O=C(NC(=S)NNS(=O)(=O)c1ccc(Cl)cc1)c1cccnc1
→ -9% | -2%
- CCN1CCN(C(=S)Nc2ccsc2C(=O)OC)CC1
→ -14% | -12%
- CCOc1ccc2c(c1)c(N=Nc1cccc(C(=O)O)c1)c(O)n2C
→ -7% | i
- O=C(Nc1cccc(NC(=O)c2ccccc2Cl)c1)c1ccco1
→ -8% | i
- Cc1nc(NC(=O)C2CCCC2)sc1Cc1ccc2c(c1)OCO2
→ -20% | ?

Screening results: PubChem, National Center for Advancing Translational Sciences (NCATS)

Rows were taken by chance; any-hit rate near 0.87%.
